H5N1 antiviral: MDCK cell protection from H5N1 avian flu; cytopathic effect, luminescence, 72 h; hits give high values; no value below 0 was filed and about half of the inactive calls have no number; reference of the scale not given here; actives 0.07% (n = 96,000); inhibition, % at 50 µM; in the data active = inhibition above about 25%
* = called active by the depositor.

What do the screens show for `COC(=O)c1ccc(CSc2nnc(-c3ccncc3)n2Cc2ccccc2)o1`?
H5N1 antiviral: 2.6

Results for COc1cccc(CN2C(=O)c3ccccc3C2C(=O)NCC2CCCO2)c1 (configuration not stated) ?
H5N1 antiviral: inactive

How did COc1ccc(NC(=O)c2noc3c2CCC3)cc1 do in these assays?
H5N1 antiviral: inactive

How did CC1Oc2ccccc2N(CC(=O)NCCc2ccccc2)C1=O (configuration not stated) do in these assays?
H5N1 antiviral: 2.2

Results for Cc1cc(C(=O)COc2ncnc3sccc23)c(C)n1C1CC1 ?
H5N1 antiviral: 0.3

What do the screens show for `Nc1c(C(=O)NCCN2CCOCC2)c2nc3ccccc3nc2n1-c1ccc2c(c1)OCO2`?
H5N1 antiviral: inactive

How did CN(C)c1nc(-c2ccc([N+](=O)[O-])cc2)cs1 do in these assays?
H5N1 antiviral: 0.2

What do the screens show for `CC(C)C(c1nnnn1Cc1ccccc1)N(Cc1ccco1)Cc1cccs1` (configuration not stated)?
H5N1 antiviral: 0.3

How did CCOC(=O)CC(NC(=O)c1ccco1)c1ccc(C)cc1 (configuration not stated) do in these assays?
H5N1 antiviral: 1.1

What do the screens show for `CC(C)CNC(=O)CCCc1ccccc1`?
H5N1 antiviral: inactive

What do the screens show for `COc1ccc(OC)c(C(C(=O)NCc2ccco2)N(C(=O)Cn2nnc3ccccc32)C(C)C)c1` (configuration not stated)?
H5N1 antiviral: 1.5

How did C(=N\n1cnnc1)/c1cccs1 do in these assays?
H5N1 antiviral: 0.2

What do the screens show for `CCCN(CC1CC1)c1nc(N)c(C#N)c(CC#N)c1C#N`?
H5N1 antiviral: 0.2

What do the screens show for `O=C(Nc1nc2ccccc2s1)C1CC(=O)N(c2ccccc2)C1` (configuration not stated)?
H5N1 antiviral: inactive

Results for COc1ccc2[nH]c(=O)c(CNc3cccc(C)c3)cc2c1 ?
H5N1 antiviral: 1.4

What do the screens show for `COc1ccc(C2(C)NC(=O)N(Cc3cc(Cl)cc4c3OCOC4)C2=O)cc1OC` (configuration not stated)?
H5N1 antiviral: inactive

Results for CSCCC(C(=O)O)N1C(=O)c2ccc(C(=O)O)cc2C1=O (configuration not stated) ?
H5N1 antiviral: 0.8

How did COc1cccc(NC(=O)Cc2cccs2)c1 do in these assays?
H5N1 antiviral: inactive

Results for O=C(Nc1cccc(NC(=O)C2CC3CCCC(C2)C3=O)n1)C1CC2CCCC(C1)C2=O (configuration not stated) ?
H5N1 antiviral: 1.5

How did COC(=O)C1=COC(C)C2CN3CCc4c([nH]c5ccccc45)C3CC12 (configuration not stated) do in these assays?
H5N1 antiviral: inactive

What do the screens show for `COC(=O)c1ccc(CN(Cc2ccc(C(=O)OC)o2)C(C)(C)C)o1`?
H5N1 antiviral: 0.1

Results for Cn1c(C(=O)N2CCN(c3cccc(C(F)(F)F)c3)CC2)cc2sccc21 ?
H5N1 antiviral: inactive

What do the screens show for `O=C(c1cccs1)c1no[n+]([O-])c1C(=O)c1cccs1`?
H5N1 antiviral: inactive

Results for Cc1cccc(C2Nc3ccccc3C(=O)N2c2ccccc2)n1 (configuration not stated) ?
H5N1 antiviral: inactive

Results for Cc1cc(C)n2nc(-c3sccc3-n3cccc3)cc2n1 ?
H5N1 antiviral: 3.1

How did Cc1cc(C)c2[nH]c(=O)c(C(c3nnnn3Cc3ccc4c(c3)OCO4)N3CCCC3)cc2c1 (configuration not stated) do in these assays?
H5N1 antiviral: 0.1

Results for COc1ccc(OC)c(NC(=O)C2CC(=O)N(c3ccc(Br)cc3)C2)c1 (configuration not stated) ?
H5N1 antiviral: inactive

Results for CCn1c(COc2ccccc2C(N)=O)nc2ccccc21 ?
H5N1 antiviral: inactive

How did O=C(OC1CCc2ccccc2C1=O)c1ccccc1O (configuration not stated) do in these assays?
H5N1 antiviral: inactive

Results for O=c1[nH]nc(Cc2ccc(-c3ccccc3Cl)o2)c2ccccc12 ?
H5N1 antiviral: 0.5

Results for O=C(Nc1nnc(-c2ccc3c(c2)CCCC3)o1)c1ccccc1Cl ?
H5N1 antiviral: 2.8

What do the screens show for `CSc1nc(-c2ccccc2)nc2c1COC(C)(C)C2`?
H5N1 antiviral: 3.3

Results for CCc1ccc(C(CC(=O)c2ccc(Cl)cc2)C(=O)O)cc1 (configuration not stated) ?
H5N1 antiviral: inactive

Results for CC(C)(C)C(=O)Cn1c[n+](N)cn1 ?
H5N1 antiviral: 0.7

Results for Cc1[nH]nc2c1C(c1ccc3c(c1)OCO3)C(C#N)=C(N)O2 (configuration not stated) ?
H5N1 antiviral: inactive

How did CNC(=O)c1ccccc1NC(=O)c1cccc(S(=O)(=O)N2CCC(C)CC2)c1 do in these assays?
H5N1 antiviral: inactive

Results for CC(=O)N1CCCc2ccccc21 ?
H5N1 antiviral: 0.3

What do the screens show for `CC(O)CNc1nc2ccccc2n1CC(=O)NCCc1ccc(Cl)cc1` (configuration not stated)?
H5N1 antiviral: inactive

How did Cc1ccc(S(=O)(=O)N(C)CC(=O)O/N=C(\N)c2ccccn2)cc1 do in these assays?
H5N1 antiviral: 0.7

How did Cc1ccc(S(=O)(=O)N2CCC(C(=O)Nc3ccc4c(c3)COC4=O)CC2)cc1 do in these assays?
H5N1 antiviral: 0.8

How did CCn1c(SCC(=O)OC2CCCCC2)nc2ccccc2c1=O do in these assays?
H5N1 antiviral: 1.7

What do the screens show for `CCOc1ccccc1NC(=O)N1CCC(c2nc3ccccc3[nH]2)CC1`?
H5N1 antiviral: inactive

What do the screens show for `COc1ccc(/C=C2\CN(Cc3ccccc3)C/C(=C\c3ccc(OC)cc3OC)C2=O)c(OC)c1`?
H5N1 antiviral: inactive

Results for Cc1nn2c(-c3ccc(Cl)cc3Cl)nnc2s1 ?
H5N1 antiviral: inactive

How did Cc1ccccc1OCCC(=O)Nc1c(C)n(C)n(-c2ccccc2)c1=O do in these assays?
H5N1 antiviral: inactive

What do the screens show for `CCn1c(SCC(=O)N2CCc3ccccc32)nnc1-c1ccncc1`?
H5N1 antiviral: 0.8

What do the screens show for `Cc1cc(Oc2ccc(=O)n(C)n2)nc(Oc2ccc(=O)n(C)n2)n1`?
H5N1 antiviral: inactive

How did CN(C)c1nn(C(=O)Nc2ccc(Cl)cc2Cl)cc1-c1ccccc1 do in these assays?
H5N1 antiviral: 0.4

How did CC(C)(C)NC(=O)CN(C(=O)CNC(=O)c1cccs1)c1ccc2c(c1)OCCO2 do in these assays?
H5N1 antiviral: 0.5

How did c1cncc(-c2nc(N3CCOCC3)c3ccccc3n2)c1 do in these assays?
H5N1 antiviral: 1.7

Six entries already listed, arranged by molar mass, low to high:
Results for Cc1nn2c(-c3ccc(Cl)cc3Cl)nnc2s1 ?
H5N1 antiviral: inactive

What do the screens show for `Cc1cc(Oc2ccc(=O)n(C)n2)nc(Oc2ccc(=O)n(C)n2)n1`?
H5N1 antiviral: inactive

How did CCn1c(SCC(=O)OC2CCCCC2)nc2ccccc2c1=O do in these assays?
H5N1 antiviral: 1.7

What do the screens show for `CCOc1ccccc1NC(=O)N1CCC(c2nc3ccccc3[nH]2)CC1`?
H5N1 antiviral: inactive

How did Cc1ccccc1OCCC(=O)Nc1c(C)n(C)n(-c2ccccc2)c1=O do in these assays?
H5N1 antiviral: inactive

How did CC(C)(C)NC(=O)CN(C(=O)CNC(=O)c1cccs1)c1ccc2c(c1)OCCO2 do in these assays?
H5N1 antiviral: 0.5

Back to the main list with the 6 entries that preceded the break.
How did Cc1ccccc1OCCC(=O)Nc1c(C)n(C)n(-c2ccccc2)c1=O do in these assays?
H5N1 antiviral: inactive

What do the screens show for `CCn1c(SCC(=O)N2CCc3ccccc32)nnc1-c1ccncc1`?
H5N1 antiviral: 0.8

What do the screens show for `Cc1cc(Oc2ccc(=O)n(C)n2)nc(Oc2ccc(=O)n(C)n2)n1`?
H5N1 antiviral: inactive

How did CN(C)c1nn(C(=O)Nc2ccc(Cl)cc2Cl)cc1-c1ccccc1 do in these assays?
H5N1 antiviral: 0.4

How did CC(C)(C)NC(=O)CN(C(=O)CNC(=O)c1cccs1)c1ccc2c(c1)OCCO2 do in these assays?
H5N1 antiviral: 0.5

How did c1cncc(-c2nc(N3CCOCC3)c3ccccc3n2)c1 do in these assays?
H5N1 antiviral: 1.7

How did Cc1cccc(NC(=O)CSc2nc(C)nc3c2c(=O)n(C)c(=O)n3C)c1 do in these assays?
H5N1 antiviral: inactive

What do the screens show for `CC(C)C(C)(C#N)NC(=O)CSc1nnc(-c2ccccc2)o1` (configuration not stated)?
H5N1 antiviral: inactive

How did OC(CN1C2=NCCN2c2ccccc21)c1ccc(Br)cc1 (configuration not stated) do in these assays?
H5N1 antiviral: inactive

How did COc1ccc(-c2cc(C(F)(F)F)nc(N3CCN(c4ccc(F)cc4)CC3)n2)cc1OC do in these assays?
H5N1 antiviral: 0.4

Results for O=C(c1cccs1)N1CCCC(c2nc(-c3ccc(F)cc3)no2)C1 (configuration not stated) ?
H5N1 antiviral: 0.9

Results for CCOC(=O)C1CCCCN1C(=O)CCc1c(C)nc2ncnn2c1C (configuration not stated) ?
H5N1 antiviral: 0.7

How did COC(=O)c1ccccc1NC(=O)c1ccc(COc2ccccc2)o1 do in these assays?
H5N1 antiviral: inactive

How did CS(=O)(=O)N1CCCC(C(=O)NCc2ccccc2Cl)C1 (configuration not stated) do in these assays?
H5N1 antiviral: inactive

Results for CCn1cc(S(=O)(=O)CC(=O)Nc2ccc(OC)cc2)c2ccccc21 ?
H5N1 antiviral: 0.4

How did C=CCN1C(=O)C2C(C(=O)NCc3ccccc3)C3C=CC2(O3)C1C(=O)NC(C)(C)C (configuration not stated) do in these assays?
H5N1 antiviral: 0.1

What do the screens show for `CO/N=C/c1ccc(Oc2ccc(C)cc2)nc1`?
H5N1 antiviral: inactive

What do the screens show for `COc1ccc(/C=C/C(=O)c2nc3ccccc3n2CC(=O)c2ccc(OC)cc2)cc1`?
H5N1 antiviral: inactive

What do the screens show for `CCOC(=O)Cc1cc(=O)c2c(=O)n(-c3ccccc3)[nH]c2[nH]1`?
H5N1 antiviral: 0.2

Results for CCC12CN3CC(CC)(CN(C1)C3c1cccnc1)C2=O (configuration not stated) ?
H5N1 antiviral: 1.0

How did O=C(N/N=C/c1cccnc1)c1cc2c(ccc3ccccc32)o1 do in these assays?
H5N1 antiviral: 0.1

What do the screens show for `O=C(c1ccc(Cl)cc1)N1CCCCC(Sc2nnc(-c3ccc4c(c3)OCO4)o2)C1=O` (configuration not stated)?
H5N1 antiviral: inactive

Results for COc1cccc(-c2cc(C(F)(F)F)nc(-n3cc(Cl)cn3)n2)c1 ?
H5N1 antiviral: inactive

What do the screens show for `CSc1nc(N)nc(SCCS(=O)(=O)c2ccc(Cl)cc2)c1C#N`?
H5N1 antiviral: inactive

How did CCNc1nc(OC)nc(Oc2ccc(C(=O)OC)cc2)n1 do in these assays?
H5N1 antiviral: inactive

Results for CC(C)CCNC(=O)C12CN(Cc3ccccc3)CC1C(c1cccc([N+](=O)[O-])c1)=NO2 (configuration not stated) ?
H5N1 antiviral: 0.5

Results for COCCN(C(=O)c1cccc(OC)c1)c1nnc(-c2ccncc2)s1 ?
H5N1 antiviral: inactive

Results for O=c1[nH]c2c(s1)C(c1ccco1)C1C3CCC(C3)C1S2 (configuration not stated) ?
H5N1 antiviral: inactive

What do the screens show for `O=C(CC1(O)C(=O)N(Cc2ccccc2)c2ccccc21)c1ccncc1` (configuration not stated)?
H5N1 antiviral: 0.8

What do the screens show for `O=c1c2c([nH]c3ccccc13)CCCC2`?
H5N1 antiviral: 0.2

What do the screens show for `O=C(O)C1CC=CCC1C(=O)Nc1ccc(S(=O)(=O)N2CCCc3ccccc32)cc1` (configuration not stated)?
H5N1 antiviral: inactive

How did O=C(Nc1ccc(Cl)c(Cl)c1)c1ccncc1 do in these assays?
H5N1 antiviral: 1.2

Results for N#Cc1c(NC(=O)CSc2nnnn2C2CCCC2)sc2c1CCCC2 ?
H5N1 antiviral: 1.2

What do the screens show for `CC(=O)Nc1ccc(SCC(=O)c2cc(C)n(CC(F)(F)F)c2C)cc1`?
H5N1 antiviral: 3.8

How did O=C(Nc1ccccn1)c1cc(-n2cnnc2)ccc1Cl do in these assays?
H5N1 antiviral: 2.0

How did O=C(CSc1ccc2nnc(-c3ccccc3)n2n1)NCc1ccco1 do in these assays?
H5N1 antiviral: 3.9

Results for COc1ccc(Cl)cc1Nc1nc(-c2sc(NC(=O)c3ccco3)nc2C)cs1 ?
H5N1 antiviral: inactive

What do the screens show for `CC(=O)N1c2ccccc2C(C)(c2ccccc2)CC1(C)C` (configuration not stated)?
H5N1 antiviral: 5.2

How did Cc1ccc(S(=O)(=O)CC(c2ccccc2)N2CCOCC2)cc1 (configuration not stated) do in these assays?
H5N1 antiviral: 1.1

What do the screens show for `COc1cccc(CN(C)C(=O)c2ccc3nccnc3c2)c1`?
H5N1 antiviral: 1.7

What do the screens show for `N#Cc1nc(Cc2cccc3ccccc23)oc1NCCCN1CCOCC1`?
H5N1 antiviral: inactive

What do the screens show for `O=C(O)C1CCCN1S(=O)(=O)c1cccs1` (configuration not stated)?
H5N1 antiviral: 0.3

How did Cc1ccc(NC(=O)c2cccc(OCc3c(C)noc3C)c2)c(C)c1 do in these assays?
H5N1 antiviral: inactive

Results for Cc1sc(NC(=O)CN2CCOCC2)nc1-c1ccc2c(c1)CCN2S(=O)(=O)c1ccccc1 ?
H5N1 antiviral: 0.2

What do the screens show for `CCCCc1noc2c1/C(=N\O)CC(c1ccccc1)C2` (configuration not stated)?
H5N1 antiviral: inactive

What do the screens show for `O=C(NC1CCCCC1)NC1CC2CCC(C1)N2C(=O)NC1CCCCC1` (configuration not stated)?
H5N1 antiviral: 2.2

How did CCc1ccc(NC(=O)CSc2nc3ccccc3c(=O)n2CCN2CCOCC2)cc1 do in these assays?
H5N1 antiviral: inactive

What do the screens show for `CC(=O)Oc1ccc(C)cc1-n1nc2ccccc2n1`?
H5N1 antiviral: inactive

From PubChem BioAssay

Only part of the results is shown; rates above refer to the full screens.
